High-throughput results as filed in PubChem BioAssay.
Mtb hypoxia inh – reduces hypoxia-regulated biosensor signal in M. tuberculosis | 300,000 compounds, 0.1% hits | fluorescence inhibition, % (no concentration beside the values) | M. tuberculosis hypoxia-regulated fluorescent reporter, fluorescence;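 active = 35 to 45% if threefold the growth effect, above 45% if 1.5-fold the growth effect; inactive = the rest, general growth blockers included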;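 also: wells of about 50 µL received 100 nL stock; 0% = vehicle wells and 100% = reference inhibitor wells; whole bacteria with a GFP reporter of the hypoxia response; strong numbers were not always called active; many hits fall short of the cut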
PrP UTR inh – inhibition of PrP 5' UTR reporter expression; cell-based PrP 5' UTR mRNA reporter, plate reader; inhibition, % (concentration not given with the values); 340,000 compounds, 0.35% hits;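 active = every replicate at 50% or more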;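 also: 0 = median of the neutral control wells; tested in H4 reporter cells; numbers are from one replicate; inactives centre near -14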
Sa RN4220 lethal – kills Staphylococcus aureus RN4220 | S. aureus RN4220 growth, OD600, 16 h | inhibition, % (test concentration not listed) | 330,000 compounds, 0.33% hits;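 active = z-score of -3 or lower and OD600 up to 0.18 on both plates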;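 also: plate controls were untreated cells for no effect and reference antibiotic for full effect; stock transfer was 100 nL into about 80 µL; one replicate is shown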
BJeLR lethal – kills HRASV12-expressing BJeLR cells. 300,000 compounds, 0.17% hits. BJeLR (HRASV12) viability, CellTiter-Glo ATP luminescence, 48 h; reference of the scale not given here. AID 1554. inhibition, % (test concentration not listed);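 active = replicate mean above 50%; inconclusive = above 50% but judged a plate artefact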;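 also: 50 nL library stock added to about 25 µL; numbers are from one replicate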
Autofluor counter – counter-screen for toxin protease inhibitors: compound fluorescence; compound autofluorescence counterscreen, microsphere flow cytometry; hits give high values; fluorescence intensity (concentration not given with the values); 360,000 compounds, 3.1% hits; AID 624483;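 active = at least 3 SD above the mean of all compounds, about 16000 in these data; inconclusive = too few beads counted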;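 also: 100 nL of 1 mM stock went into each well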
Sa ugtP lethal – compounds lethal to S. aureus RN4220 ugtP deletion mutant; OD600 growth, 16 h; some inactives read as strong as hits; growth inhibition, % (test concentration not listed); 330,000 compounds, 0.54% hits; AID 1259309;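 active = z-score under -3 and OD600 up to 0.15 on both plates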;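 also: plate controls were untreated wells for no effect and antibiotic for full effect; wells of about 80 µL received 100 nL stock; the first replicate is given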
Mtb hypoxia inh growth – also measured in Mtb hypoxia inh; calls as there; growth inhibition, %; measured here: M. tuberculosis growth (absorbance);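 0% = vehicle and 100% = reference antibiotic; read after six days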
* marks the source's active call; other numbers are inactive results; ? = inconclusive; · = not tested or not shown.

SMILES	Mtb hypoxia inh	Mtb hypoxia inh growth	PrP UTR inh	Sa RN4220 lethal	BJeLR lethal	Autofluor counter	Sa ugtP lethal
CCCCc1c(C)nc(N)[nH]c1=O	9	7	-6	0.7	-5	3042	2
O=C(NCCCCc1ccccc1)c1cc([N+](=O)[O-])cc([N+](=O)[O-])c1	·	·	0	·	-8	4258	·
CC(C)(C)NC(=O)C1CC(=O)N(CCc2ccc(F)cc2)C1 (stereo not drawn)	6	4	-73	-3.8	0	3451	11
Cc1cccn2c(=O)c3cc(C(=O)NCC4CCCO4)c(=N)n(C4CCCCC4)c3nc12 (stereo not drawn)	-2	0	-11	-5.4	7	2914	0
O=C(Nc1cccc(Cl)c1)Nc1nnc(CSCCOc2ccc(Cl)cc2)s1	-4	5	-17	2.6	15	2093	-4
CC(C)n1c(SCC(=O)NCc2ccco2)nc2c1c(=O)n(C)c(=O)n2C	6	0	-7	1.6	0	5996	7
Cn1c(CN2CCCCC2)nc2cc(NC(=O)c3cccs3)ccc21	-2	-3	-31	-2.0	3	10730	6
COC(=O)NCC(c1cccnc1)N1CCN(c2ccccc2OC)CC1 (stereo not drawn)	-1	4	-18	9.3	20	3199	-5
O=C(N/N=C/c1ccc2c(c1)OCO2)c1ccc(NC(=O)c2ccc(F)cc2)cc1	·	·	-13	·	-2	3731	·
COCCNC(=O)CCCn1c(=O)c2ccccc2n(CC(=O)NCCC2=CCCCC2)c1=O	·	·	-10	-0.2	-1	3593	2
COc1ccc(Cl)cc1S(=O)(=O)n1nnc2ccccc21	8	2	0	3.1	0	14102	0
C(=NNc1nc(-c2ccccc2)cs1)c1ccco1	6	1	·	3.1	·	·	3
O=C(CSC1=Nc2ccccc2C2=NC(Cc3c[nH]c4ccccc34)C(=O)N12)NC1CCCCC1 (stereo not drawn)	-10	4	-4	2.1	-7	·	0
Cc1nc(C(=O)NCCC(C)C)sc1C1(C)CC(c2ccccc2)=NO1 (stereo not drawn)	-2	-4	-7	1.0	3	3624	3
COC(=O)C(Cc1ccccc1)NC(=S)NC(=O)c1ccccc1 (stereo not drawn)	4	4	-1	-12	-4	4431	2
CCOc1ccc(S(=O)(=O)Nc2ccc(C(=O)NNC(=O)c3ccncc3)cc2)cc1	3	7	-21	4.1	2	7954	4
Cc1nc(SCc2ccccc2C)n[nH]1	-4	8	-23	4.2	-1	3772	2
O=C(Cc1ccc(Cl)cc1)Nc1ccc(S(=O)(=O)Nc2ncccn2)cc1	-1	6	-21	3.1	-14	3960	5
CN(C)n1cnc2ccsc2c1=O	5	0	-17	0.3	3	4591	1
O=C(CN1CCN(Cc2ccc(Cl)cc2)C1=O)NCCCN1CCOCC1	0	-1	-8	1.3	1	5356	6
CN(C)/C(=N\OC(=O)c1ccccc1)c1nonc1N	·	·	-3	·	-20	2552	·
COc1ccc(-n2ncc3c(N4CCCCC4)ncnc32)cc1	14	14	86*	11	21	3988	-4
O=C(c1ccco1)N1CCN(C(=O)c2ccc(CS(=O)c3ccc(F)cc3)o2)CC1 (stereo not drawn)	7	1	-14	6.7	-5	4775	16
COc1ccc(OC)c(/C=C/C(=O)N(C)CC(=O)Nc2ccc(N3CCOCC3)cc2)c1	1	-7	-7	-0.4	·	2829	-1
CCOC(=O)C1CCN(C(=O)c2cc(S(=O)(=O)N3CCOCC3)ccc2C)CC1	-1	8	-7	3.2	·	5109	3
CCCN(CCC)CCCNC(=O)CNC(=O)c1nn(-c2ccc(OC)cc2)c(=O)c2ccccc12	15	5	13	8.0	7	3243	3
CC(C)c1ccc(NC(=O)C2C3C=CC4(O3)C2C(=O)N(CCCN2CCCCC2)C4C(=O)NC2CCCCC2)cc1 (stereo not drawn)	18	9	-26	2.9	-3	3897	-3
COc1ccc2c(O)c(-c3c(C)cc(C)cc3C)c(=O)[nH]c2c1	-11	2	-8	3.7	-1	4246	-6
O=c1c2sccc2n(Cc2cccc(F)c2)c(=O)n1-c1ccc(F)cc1	0	8	-16	3.0	1	2719	34
O=C(NC(=S)Nc1ccc(Br)cn1)c1cncc(Br)c1	-1	-1	-23	5.2	3	10889	-24
CC/S(CC1CC1(Cl)Cl)=N\S(=O)(=O)c1ccc(C)cc1 (stereo not drawn)	1	5	-48	3.1	1	19463*	-4
CC(C)(CCC(=S)N1CCOCC1)c1ccccc1	17	9	-11	7.9	·	3516	0
Cc1c(Cl)c(-c2n[nH]c(=S)n2-c2ccccc2)nn1C	·	·	-14	·	6	10204	·
O=c1c2ccccc2nc2n1CCC2	2	-2	-13	1.3	-4	7893	4
Nc1ccc(-c2nc3ncccc3o2)c(O)c1	0	-7	-51	1.9	-4	2925	15
O=C(c1ccco1)N(Cc1nc2ccccc2c(=O)[nH]1)C1CCCC1	·	·	-12	7.4	3	3485	9
Cc1ccc(-c2nnc(-c3cccc(Br)c3)o2)cc1	·	·	-136	18	3	4864	-6
COc1ccc(-c2c3c(cc(C)[n+]2[O-])oc2ccc(OC)cc23)cc1	14	6	-30	3.6	0	2035	16
CC(CCC(C)C)=NNC(=S)NCc1ccccc1	9	12	·	3.6	·	·	11
Cc1nc2c(C(=O)NCc3ccco3)cnn2c(C)c1Cc1ccc(F)cc1Cl	14	4	-18	-2.6	-4	21933*	-10

One compound at a time, from the list above. Screens in order: Mtb hypoxia inh | Mtb hypoxia inh growth | PrP UTR inh | Sa RN4220 lethal | BJeLR lethal | Autofluor counter | Sa ugtP lethal
Listed for CCOC(=O)C1CCN(C(=O)c2cc(S(=O)(=O)N3CCOCC3)ccc2C)CC1 : -1 | 8 | -7 | 3.2 | · | 5109 | 3
Listed for COc1ccc2c(O)c(-c3c(C)cc(C)cc3C)c(=O)[nH]c2c1 : -11 | 2 | -8 | 3.7 | -1 | 4246 | -6
Listed for Cc1ccc(-c2nnc(-c3cccc(Br)c3)o2)cc1 : · | · | -136 | 18 | 3 | 4864 | -6
Listed for O=c1c2ccccc2nc2n1CCC2 : 2 | -2 | -13 | 1.3 | -4 | 7893 | 4
Listed for Nc1ccc(-c2nc3ncccc3o2)c(O)c1 : 0 | -7 | -51 | 1.9 | -4 | 2925 | 15

More results.
SMILES	Mtb hypoxia inh	Mtb hypoxia inh growth	PrP UTR inh	Sa RN4220 lethal	BJeLR lethal	Autofluor counter	Sa ugtP lethal
O=C(CCS(=O)(=O)c1ccc(Cl)cc1)NCCc1c[nH]c2ccccc12	15	15	-5	7.8	17	3489	2
O=C(NNc1cccc(Cl)n1)C(F)(F)F	8	5	-37	1.8	-1	4222	4
C=CCn1c(C)cc(C(=O)CN2C(=O)c3ccccc3S2(=O)=O)c1C	6	0	92*	4.5	·	·	10
Cc1ccccc1CN(c1ccc(C(N)=O)cc1)S(C)(=O)=O	-2	4	-2	-2.5	6	16249*	-2
Cc1nc(-c2cccc(S(=O)(=O)N3CCOCC3)c2)cs1	-2	1	-19	1.2	-3	8887	-13
Cc1c([N+](=O)[O-])c(C(=O)NC2CCCC2)nn1C	6	5	-4	-0.6	5	5099	4
CC(=O)N1CCC(=NNC(=O)c2cc3ccccc3cc2O)CC1	-7	-2	-9	9.1	-2	4786	-2
CSCC[C@H](NC(=O)OC(C)(C)C)C(=O)N1CCC(C(=O)N[C@@H](C)C(=O)NC(C)c2ccccc2)CC1 (stereo partly drawn)	·	·	-5	0.3	-4	4223	-4
O=C(Nc1nccs1)C12CC3CC(C1)CC(C(=O)Nc1nccs1)(C3)C2	·	·	-27	4.8	-8	5950	-13
C=Cc1ccc(C(=O)N2CCCC(CCC(=O)N3CCN(c4ccccn4)CC3)C2)cc1 (stereo not drawn)	-1	-1	-15	2.7	-7	5482	3
CCN(CC)S(=O)(=O)c1cccc(-c2nnc(C(=O)c3ccc(C(F)(F)F)cc3)o2)c1	-11	0	-3	2.2	2	8622	-2
CCCCOC(=O)c1ccc(NC(=O)C(CCS(C)(=O)=O)NC(C)=O)cc1 (stereo not drawn)	·	·	-11	3.4	-3	5206	3
NC(=O)C1CCN(C(=O)c2cc3ccccc3cc2O)CC1	3	1	-15	-0.5	-2	5780	7
Cc1ccc2c(CC(=O)NCCc3ccc(S(N)(=O)=O)cc3)coc2c1	12	7	-8	1.4	-8	3992	11
O=C(COC(=O)c1ccco1)Nc1nc2c(F)c(F)c(F)cc2s1	-1	-5	-5	4.0	1	2993	-2
O=C(Cn1c(=O)[nH]c2ccccc2c1=O)Nc1cccnc1	5	3	-21	3.2	1	5432	6
O=C(Nc1ccc(C(F)(F)F)cc1[N+](=O)[O-])OC1C(Cc2ccccc2)NS(=O)(=O)C2CC3C=C[C@]12O3 (stereo partly drawn)	3	10	·	-3.4	·	·	-2
COc1cc(Cl)ccc1OCc1cc(C(=O)N2CCC(N(C)C)C2)no1 (stereo not drawn)	10	12	-15	0.0	3	5386	-4
Cc1ccc2c(c1)C1CN(C)CCC1N2C(=S)Nc1ccc(Cl)cc1Cl (stereo not drawn)	-1	6	-11	5.9	9	4659	-2
COc1ccccc1NC(=O)Cn1cnc2c1c(=O)n(C)c(=O)n2C	8	0	-8	-9.5	2	2909	-4
CCc1nc(SCC(=O)Nc2ccccc2Cl)n[nH]1	9	2	-1	4.7	8	4692	3
N#Cc1c(C#N)c(O)c2ccccc2c1O	3	7	-12	4.9	-10	3708	-3
CCn1c(CC(=O)Nc2ccc(Cl)c(Cl)c2)nnc1SCc1ccc(Cl)cc1	4	-3	-10	-8.7	-2	3083	-12
Cc1cc(C)cc(NC(=S)NCC2CCN(C(C)c3ccccc3)C2)c1 (stereo not drawn)	13	15	9	0.8	-1	3191	10
Cc1ccc(C(C)NC(=O)c2ccc3c(c2)OCCO3)cc1C (stereo not drawn)	15	0	-28	1.7	0	3845	7
COCc1cc(C)nc(N2CCCCC2)c1C#N	15	10	-12	7.2	-5	2954	9
Cc1nc(Nc2ccccc2F)c2nnn(Cc3ccccc3Cl)c2n1	4	4	-24	3.4	-5	3604	9
CC(N)Cc1ccccc1Sc1ccc(O)cc1 (stereo not drawn)	5	13	·	-15	-9	·	-9
O=C(Nc1nc(-c2ccc(F)c(F)c2)cs1)Nc1ccc(F)cc1F	-10	-6	1	-11	1	3226	-26
O=C(NN1CCOCC1)c1ccccc1	0	0	-11	-1.0	1	4357	-6
CCCn1c(SC(C)C(=O)NCC2CCCO2)nc2cc(Cl)ccc2c1=O (stereo not drawn)	6	-5	-5	0.7	-11	?	4
COc1ccc(Br)cc1/C=N/Nc1ccccn1	·	·	-10	·	13	3052	·
CNC(=O)ON=C(N)Cc1csc2ccccc12	3	-8	·	2.9	·	·	5
O=c1[nH]c(-c2cccs2)nc2ccccc12	·	·	-21	6.1	1	3646	7
CN1CCN(CCC(=O)N2c3ccccc3Sc3ccc(Cl)cc32)CC1	20	8	-15	2.5	-7	?	0
Cc1nc(C(F)(F)F)c(C(=O)N=CN(C)C)s1	0	-7	-11	4.1	-5	4101	-1
COP(=S)(OC)Oc1ccc(SC)c(C)c1	1	2	-12	4.0	·	2746	6
CCN(CC)C(=O)c1ccc(S(=O)(=O)c2ccccc2)cc1	-5	6	2	2.4	-6	3400	4
CC(=O)N1c2ccccc2CCc2ccc([N+](=O)[O-])cc21	11	2	-5	6.9	-10	4133	13
CCC(=O)Nc1ccc(/C=C(\C(C)=O)C(=O)c2ccccc2)cc1	3	5	-16	3.2	-6	4630	4
CCN(Cc1nc2ccccc2c(=O)[nH]1)C(=O)COc1ccccc1Cc1ccccc1	10	-2	-20	-4.1	·	5141	8
CCOC(=O)C(Cc1ccccc1)NC(=O)CCCC(=O)c1ccccc1 (stereo not drawn)	12	11	-1	0.9	2	3650	0
C=CCn1c(SCC(=O)c2cc(C)n(CC3CCCO3)c2C)nnc1-c1ccccc1 (stereo not drawn)	0	4	-4	-1.9	3	3910	-1
CN(C)CCOC(c1ccccc1)c1ccccc1 (tested in a mixture with another compound)	-2	10	-27	2.7	1	5528	1
Cn1c(SCC(=O)Nc2ccc(Cl)cc2)nnc1C1CC1	7	0	-8	2.0	-7	5766	3
COc1ccccc1NC(=O)CN1C(=O)NC2(CCCc3ccccc32)C1=O (stereo not drawn)	-7	0	1	-3.3	·	2962	-5
CCOC(=O)Cc1csc(NS(=O)(=O)c2cc(Cl)ccc2Cl)n1	10	0	-11	16	1	3033	4
CCc1ccc(NC(=O)/C(C#N)=C\c2ccc(OC)c(C(=O)O)c2)cc1	2	6	-34	3.3	1	4355	5
